Bioassay records from PubChem BioAssay.
KSHV LANA nucl = inhibitors of KSHV LANA-nucleosome binding, primary screen, biochemical, fluorescence polarization, FITC-LANA1-23, chicken nucleosomes; FITC-LANA1-23 / chicken nucleosome fluorescence polarization; hits give low values; z-score (concentration not given with the values); 51,000 compounds, 0.3% hits; AID 720717, 2013;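 active = both repeat wells score below -2 in polarization z-score versus plate sample wells, excluding overly bright wells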;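 also: 100 nL library stock added to about 30 µL; numbers are from one replicate; some results filed as inactive read as strong as hits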
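Test system: purified chicken nucleosomes with FITC-labelled LANA N-terminal peptide (1-23); Input: 240 nM purified chicken nucleosomes (480 nM peptide binding sites), final; Medium: TEN-BT buffer, pH 7.5; Timing: 10–45 min, room temperature; Technique: fluorescence polarization, 480 nm excitation, 535 nm parallel and perpendicular emission; Replication: duplicates.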
Ab BasE inh = BasE siderophore enzyme inhibitors, primary screen, biochemical, Acinetobacter baumannii ATCC 17978, fluorescence polarization | 84,000 compounds, 0.1% hits | inhibition, % (test concentration not listed) | purified BasE, fluorescence polarization binding displacement;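 active = both replicates above 25% with normal brightness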;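 also: 0% = negative plate control signal and 100% = positive plate control signal; stock transfer was 100 nL into about 30 µL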
* = called active by the depositor; . = no result given; & = joins results of further samples.

molecule	KSHV LANA nucl	Ab BasE inh
COc1ccc(C2C(C#N)=C(SCC(=O)NCc3ccc4c(c3)OCO4)NC3=C2C(=O)CC(C)(C)C3)cc1 (stereo unspecified)	0.018	2.2
Nc1ccc(S(=O)(=O)C(F)F)cc1	.	-0.3
COc1ccc(C2C(=O)c3ccccc3C2=O)cc1OC	0.42	0.6
O=C(c1cnn(-c2ccc(C(F)(F)F)cn2)c1)c1ccccc1O	.	-1.8
N#Cc1nncn1-c1nc(-c2cccs2)nc2scc(-c3ccccc3)c12	.	-1.6
CN(C)S(=O)(=O)c1ccc(C(=O)NCc2ccccc2CN2CCOCC2)cc1	.	-2.5
O=C(CN1C(=O)c2cccnc2Sc2ccccc21)N1CCC2(CC1)OCCO2	0.44	1.3
O=C(O)c1ccc(-c2ccc(/C=C3\Sc4ccccc4C3=O)o2)cc1	.	-52
N=C1C(c2nc3ccccc3s2)=C(O)CN1C1CCCC1	0.075	-0.7
Cc1nn(-c2ccccc2)c2nc(N)c(C#N)c(-c3ccco3)c12	.	-0.9
CS(=O)(=O)N1CCN(C(=O)c2ccccc2)CC1	-0.26	1.8
Cc1ccc(NC(=O)COC(=O)CC2Oc3ccccc3NC2=O)cc1 (stereo unspecified)	.	2.9
CCCCCOc1ccc(C(CC(N)=O)CC(=O)O)cc1 (stereo unspecified)	-0.6	4.6
CC1CC/C(=C\c2ccc(Cl)cc2)C(=O)C1 (stereo unspecified)	.	3.9
O=C(NCCc1c[nH]c2ccccc12)c1ccc2nc[nH]c2c1	.	-0.1
CCOCCCN=C1NC(CC)CS1 (stereo unspecified)	.	2.2
CCN(Cc1nc(-c2ccc(OC)c(OC)c2)no1)C(=O)CCC1CCCCC1	-0.55	-2.4
O=C(/C=C/c1ccc(F)cc1)NC(=S)Nc1ccccc1O	.	1.4
COc1ccc(NC(=O)Nc2c(SC)nsc2SC)cc1	.	-1.1
Cc1cc(/C(N)=N/OC(=O)Nc2ccccc2)no1	-0.086	-0.1
COc1ccc(-c2n[nH]c(=S)n2CCC(=O)O)cc1	.	5.3
Cc1cnc(=O)[nH]c1SCC(=O)c1ccc(F)cc1	0.6	2.7
COC(=O)C(CC(C)C)NS(=O)(=O)c1ccc(-c2nnc(SC)n2C)s1 (stereo unspecified)	.	0.8
NC(=O)C1CCN(c2ccc(Cl)nn2)CC1	-0.57	1.1
CCCCc1ccc(NC(=O)N2CCN(c3cc(C)nc4ccccc34)CC2)c(C)c1	.	1.3
O=C(CN1CCCCC1)Nc1cccc2nsnc12	.	1.0
COc1ccccc1C(CC#N)c1ccco1 (stereo unspecified)	-0.45	0.1
O=C(c1ccccc1)c1cccn1CC(=O)N1CCN(c2ccc(F)cc2)CC1	-0.11	-1.9
Cc1nc(-c2ccc(S(=O)(=O)NCC3CCN(C(=O)OC(C)(C)C)CC3)s2)cs1	.	-2.9
COC(=O)c1cc(S(=O)(=O)N2CCC(c3ccccc3)C2)c[nH]1 (stereo unspecified)	-0.36	1.2
O=C(CN1CCOCC1)N1CCN(c2ccccc2)CC1	-0.16	0.9
CCOC(=O)Cc1csc(SCc2nc3sc4c(c3c(=O)[nH]2)CCCC4)n1	.	-18
CC(=O)Nc1ccc(NC(=O)Cn2cc3c(n2)CCC(C)C3)cc1 (stereo unspecified)	-0.33	0.5
CCCn1c(SCc2ccccc2C#N)n[nH]c1=O	.	1.8
Cc1cc(C(C)(C)C)c(O)c(C)c1CC1=NCCN1	0.65&-0.54&1.9&0.18	-0.2&2.2
O=C1C=CC(=O)c2c(Cl)ccc(Cl)c21	-0.036	80*
N#Cc1ccc(NC(=O)CSc2ncn[nH]2)cc1	-0.37	4.2
N#Cc1c(NC(=O)CCn2cnnn2)sc2c1CCCC2	0.35	-0.8
CC(C)(C)c1nc(N=C(N)N)sc1Br	.	0.3
COc1ccc(NC(=O)NNc2cc(N3CCOCC3)nc(N3CCOCC3)n2)cc1	-0.69	-0.1
CCC(=O)Nc1nc2c(s1)C(=O)CC(c1ccccc1)C2 (stereo unspecified)	-0.027	-1.3
Cc1ccc2onc(CNC(=O)N3C(C)CCCC3C)c2c1 (stereo unspecified)	-1	0.1
O=C(CN1CCN(S(=O)(=O)c2ccc(Br)s2)CC1)N1CCCc2ccccc21	.	-1.5
CC1CCCCC12NC(=O)N(CCC#N)C2=O (stereo unspecified)	.	3.2
Cc1c(C(=O)N2CCC(C(N)=O)CC2)sc(N)c1C#N	0.13	-0.4
CC1N(O)C(C)(C)C(c2ccccc2)=[N+]1[O-] (stereo unspecified)	.	1.1
FC(F)(F)c1cc(Cl)nc(-c2ccncc2)n1	3	.
O=C(NC1CC2CCC1C2)c1ccccc1 (stereo unspecified)	-0.49	2.3
C=CCn1c(C)cc(C(=O)CSc2nc(-c3ccccc3)cn2N)c1C	.	0.5
O=C(CSc1ncccc1C(=O)O)c1ccccc1F	.	2.9
CC(C)N(C(=O)CSc1nnc(-c2ccco2)n1C)C(C)C	2.1	-3.8
CCc1nc2cccnc2n1CCNC(=O)Nc1ccc(OC)cc1	1.3	0.2
CCOc1ccc(N2C(=O)N(CC(=O)N3CCCCC3C)c3ccccc3S2(=O)=O)cc1 (stereo unspecified)	2.2	-4.7
CCOc1ccc(N(C)S(=O)(=O)c2cnc[nH]2)cc1	.	-0.5
CCN(CC)C(=S)SCc1nc(N)nc(Nc2ccc(C)cc2)n1	0.096	2.0
C=CCSc1n[nH]c(-c2ccc(OC)cc2)n1	2.1	-5.7

Following part.
molecule	KSHV LANA nucl	Ab BasE inh
CCOC(=O)c1cnc2c(C)cc(Cl)cc2c1Cl	0.73	1.4
CN(C)c1cccc(N(C)C)c1CNC(=O)NC(=O)c1c(Cl)cccc1Cl	0.69	1.4
COc1cc2c3c(c1)C1(C(=O)N3C(C)(C)C=C2C)C(C#N)=C(N)NC(=O)C1C(N)=O (stereo unspecified)	0.79	-2.0
Cc1oc2c(c1CC(=O)O)C(=O)CC(C)(C)C2	0.42	1.3
Cc1nnc(COC(=O)CC23CC4CC(CC(C4)C2)C3)o1	.	2.2
CCc1ccc2c(c1)c1nc3ccccc3nc1n2CC	.	4.7
CC(=O)NC(CC(=O)n1nnc2ccccc21)c1ccccc1 (stereo unspecified)	.	-0.6
Cc1ccc(-n2ncc3c(=O)n(CC(=O)N4CCc5ccccc54)cnc32)cc1C	0.16	-0.1
Fc1cccc(Cl)c1CSC(=S)N1CCSCC1	.	-0.5
CCOC(=O)c1ccc(N2C(=O)CC(N3CCN(c4ccc(O)cc4)CC3)C2=O)cc1 (stereo unspecified)	0.34	3.9
O=S(=O)(c1ccc(Cl)cc1)N1CCCC1c1ccc(F)cc1 (stereo unspecified)	-0.023	.
Cc1ccc(S(=O)(=O)N(c2nc(N(C)C)nc(N(C)C)n2)n2cnnc2)cc1	0.027	1.5
CC1=C(c2cccc(Br)c2)S(=O)(=O)NC1=NC1CCCC1	-1.2	-1.7
CC(C)c1ccc(-c2nnn(Cc3cc(=O)n4ccsc4n3)n2)cc1	.	-0.2
CCCOc1ccc(C2C(C(=O)OC)=CN(CCOC)C=C2C(=O)OC)cc1	-0.28	1.6
Cc1ccc(S(=O)(=O)NC(O)C(=O)c2cccs2)cc1 (stereo unspecified)	.	-0.6

Compound profiles (already shown).
O=C(NC1CC2CCC1C2)c1ccccc1 (stereo unspecified) in the list: KSHV LANA nucl = -0.49; Ab BasE inh = 2.3
CC1N(O)C(C)(C)C(c2ccccc2)=[N+]1[O-] (stereo unspecified) in the list: KSHV LANA nucl = .; Ab BasE inh = 1.1

(listing goes on)
molecule	KSHV LANA nucl	Ab BasE inh
N#Cc1ccc(C2=NC(C(F)(F)F)(C(F)(F)F)c3c(n(Cc4ccco4)c(=O)[nH]c3=O)N2)cc1	-0.048	-0.7
O=C(NCCCc1ccccc1)c1c(O)nc2sccn2c1=O	0.16	-0.5
CC(=C\c1ccccc1)/C=C1/SC(=O)NC1=O	.	1.6
O=C(C1CCCC1)N1CCN(c2cnn(-c3ccccc3)c(=O)c2Cl)CC1	0.47	3.4
Cc1cc(C(=O)N(C)Cc2ccccc2)on1	-1.1	-0.6
COC(=O)N/N=C/c1ccc(-c2ccccc2)o1	-0.13	0.8
Cc1ccc2c(c1)nnn2C1CCN(C(=O)Nc2ccc(C#N)cc2)CC1	1.1	-2.6
Cc1csc(=O)n1CC(=O)NC1CCCc2ccccc21 (stereo unspecified)	.	13
CC1=CS/C(=C(/C#N)C(N)=O)N1c1ccccc1	0.78	1.4
CC(NC(=O)c1nc2ncccn2n1)c1ccccc1 (stereo unspecified)	0.049	-0.5
CCOC(=O)/C(C)=N\O	-1.6	2.1
OC(CNCc1ccccc1)C(F)(F)F (stereo unspecified)	-0.12	.
CCCCn1c(=O)[nH]c(=O)c2c(C(=O)OCC)cc(-c3ccccc3Cl)nc21	.	-0.3
Cn1ccsc1=NC(=O)COc1cccc2ccccc12	.	-1.8
Cc1cccc(N2CC(C(=O)O)CC2=O)c1 (stereo unspecified)	-0.36	2.5
CC(c1ccccc1)C1C(C#N)=C(N)SC(N)=C1C#N (stereo unspecified)	0.49	1.0
CC(C)N(C(=O)NCc1ccccc1)C(C)C	.	2.4
CC(C)N(Cc1ccccc1)C(=O)c1ccccc1	-1.3	-0.7
CCOC(=O)CC(=O)c1sc(SCc2ccccc2)nc1N	1.4	-4.0
[O-]/[N+](=C\c1ccco1)C/C(=N/O)c1cccs1	-1.1	1.6
Cc1cc(OCC(=O)N(c2ccccc2)C2CCCCC2)c2ccccc2n1	.	-1.5
NS(=O)(=O)c1cc(C(=O)OCC(=O)NC2CC2)ccc1Cl	.	-2.2
CS/C(=C(/C#N)S(=O)(=O)c1ccc(Cl)cc1)N1CCOCC1	0.68	0.5
O=C1/C(=C/c2cccs2)SC(=S)N1C1CCCCC1	.	0.6

Part of the list above, field by field:
SMILES: Cn1ccsc1=NC(=O)COc1cccc2ccccc12
  KSHV LANA nucl = .
  Ab BasE inh = -1.8
SMILES: COc1cc2c3c(c1)C1(C(=O)N3C(C)(C)C=C2C)C(C#N)=C(N)NC(=O)C1C(N)=O (stereo unspecified)
  KSHV LANA nucl = 0.79
  Ab BasE inh = -2.0
SMILES: O=C(NC1CC2CCC1C2)c1ccccc1 (stereo unspecified)
  KSHV LANA nucl = -0.49
  Ab BasE inh = 2.3
SMILES: CC1CCCCC12NC(=O)N(CCC#N)C2=O (stereo unspecified)
  KSHV LANA nucl = .
  Ab BasE inh = 3.2

(next part)
molecule	KSHV LANA nucl	Ab BasE inh
CC(C)OC(=O)C(C)Oc1ccc2c3c(c(=O)oc2c1)CCC3 (stereo unspecified)	0.23	-0.7
COc1cc(OC)cc(-n2c(-c3ccco3)nc3nc4ccccc4nc32)c1	-0.98	1.7
O=S(=O)(NCc1cccnc1)c1cccc2nsnc12	.	-1.0
CCOC(=O)c1sc(SCc2c(Cl)cccc2Cl)c(S(=O)(=O)C(C)C)c1N	.	-0.8
COC(=O)c1ccc2c(c1)C1C3CCC(C3)C1C(c1ccccc1)N2 (stereo unspecified)	.	1.1
Cc1nccc(-c2cc(-c3cccc(C(F)(F)F)c3)no2)n1	.	-0.9
O=C(CSc1nc2ccccc2o1)Nc1ccccc1	.	-1.1
CC1=C(C#N)C2(O)C(=O)c3ccccc3C2(O)N1 (stereo unspecified)	0.084	4.3
CC(c1ccccc1)n1c(SCC(=O)c2cc(-c3ccccc3)no2)n[nH]c1=O (stereo unspecified)	0.58	-2.3
O=C(CN1CCCc2ccccc21)N1CCc2ccccc21	0.29	.
Cc1nn(CCCC(=O)NC2CCCCC2C)c(=O)c2cc3sccc3n12 (stereo unspecified)	-0.77	0.5
COc1cccc(NC(=S)NC(C)(C)C)c1	0.29	1.4
Cc1cc(NC(=O)CC#N)n(-c2ccccc2)n1	.	1.6
Cc1nc(Sc2nc3ccccc3o2)c2c3c(sc2n1)CCCC3	-0.79	3.0
CN(C)c1ccc(/C=C2\CCC=C2N2CCOCC2)cc1	.	-22
O=C(Nc1ccc(-c2ccc(N3CCCCC3)nn2)cc1)C(F)(F)F	2	-2.3

Continued; the last 2 above are carried over.
molecule	KSHV LANA nucl	Ab BasE inh
CN(C)c1ccc(/C=C2\CCC=C2N2CCOCC2)cc1	.	-22
O=C(Nc1ccc(-c2ccc(N3CCCCC3)nn2)cc1)C(F)(F)F	2	-2.3
CC1CN(c2ccc(NC(=S)Nc3ccc(N4CC(C)OC(C)C4)cc3)cc2)CC(C)O1 (stereo unspecified)	.	0.9
c1cnc(-c2nnc3sc(C45CC6CC(CC(C6)C4)C5)nn23)cn1	0.62	1.1
CCCN1CCN(CCCNC(=O)CN2C(=O)C(c3ccccc3)Oc3cccnc32)CC1 (stereo unspecified)	0.77	1.2
Cc1ccc(-c2oc(N)c(C#N)c2-c2ccc(C)cc2)cc1	-0.15	-3.1
O=C(COc1ccccc1C(=O)NCc1ccccc1)Nc1cccc2nsnc12	.	2.7
COC(=O)c1cccc(COC(=O)c2cc(=O)[nH]c3ccccc23)c1	0.52	-0.9

A portion of the library (hit frequency here may not be typical).
